miR-21 FLuc = miR-21 reporter, rising signal; 340,000 tested, under 10 active; Potency, µM (series often up to 38.3 µM), for inactives: at the highest dose reporter change, positive = more light; HeLa miR-21 FLuc reporter, luciferase, 48 h; active = well fitted rising curve with a large enough effect; inconclusive = small, poorly fitted or top-dose-only effect; inactive = no such curve, though single readings can be large or run the other way;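 further: % of control where 0% means no effect; miR-21 action dims this reporter so a rising signal means less miR-21 action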
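Luminescence from a firefly luciferase reporter carrying a miR-21 binding site downstream, stably expressed under a CMV promoter in HeLa cells that make miR-21 endogenously, reports miRNA modulation after 48 h compound exposure up to approximately 40uM final.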
Rango complex inh = prevents formation of the Rango-importin beta complex. Q14974. Rango CFP/YFP FRET sensor + importin beta, 45 min. Potency, µM (highest dose often 92.2 µM), inactives show at the highest dose inhibition of complex formation. 340,000 compounds, 0.031% hits; active = rising FRET ratio curve, often small or poorly fitted; inconclusive = mostly compound fluorescence or quenching in the first reads; inactive = flat curves in all reads;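 further: potency means the concentration at half of the fitted maximal effect; 0% = DMSO wells and 100% = buffer wells lacking importin beta; nearly all actives have a fitted effect of over 15% in size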
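FRET biosensor (snurportin 1 IBB flanked by EYFP and cerulean), 50 nM, with compound 5 min, then 0.125 microM importin beta in PBS, 1 mM DTT, 0.02% Tween-20, 0.1% BSA. CFP/YFP ratio read after 45 min at room temperature; pre-read flags interference.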
Rango dissoc inh = inhibition of RanGTP-driven Rango-importin beta dissociation; O95149+P62826; Biochemical FRET Rango-importin beta, RanGTP-induced dissociation; Potency, µM (top dose mostly 46.1 µM), for inactives: top-dose activity change, negative = inhibition; 340,000 compounds, 0.071% hits; active means falling FRET ratio curve, often poorly fitted, with flat reads before Ran was added; inconclusive means other falling curves, or compound fluorescence or quenching; inactive means flat or rising ratio curve;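 further: potency means the concentration at half of the fitted maximal effect; % of control where 0% means no effect; nearly all actives have a fitted effect of over 45% in size; -100% = wells without RanGTP and RCC1; the record marks most hits as doubtful in a second field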
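Compounds preincubate 5 min with complex of recombinant Rango and importin beta in PBS with 1 mM DTT. Ran (0.6 uM) loaded with 2 mM GTP plus 0.2 uM RCC1 starts dissociation; FRET is recorded 45 min later.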
GLA inh pH 4.5 = blocks human alpha-galactosidase A at pH 4.5; activity change, negative = inhibition, % at 105 µM; P06280; purified enzyme, 4-MU-alpha-Gal fluorescence, pH 4.5; AID 1467; 230,000 tested, under 10 active; inconclusive = small, poorly fitted or top-dose-only inhibition, or a rising curve; inactive = flat fitted curve, though single readings scatter; no compound was filed as active;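 further: 0% = full activity with enzyme and -100% = basal without enzyme; dose as in the result columns while the protocol names 77 µM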
Target sequence (P06280 whole entry, looked up): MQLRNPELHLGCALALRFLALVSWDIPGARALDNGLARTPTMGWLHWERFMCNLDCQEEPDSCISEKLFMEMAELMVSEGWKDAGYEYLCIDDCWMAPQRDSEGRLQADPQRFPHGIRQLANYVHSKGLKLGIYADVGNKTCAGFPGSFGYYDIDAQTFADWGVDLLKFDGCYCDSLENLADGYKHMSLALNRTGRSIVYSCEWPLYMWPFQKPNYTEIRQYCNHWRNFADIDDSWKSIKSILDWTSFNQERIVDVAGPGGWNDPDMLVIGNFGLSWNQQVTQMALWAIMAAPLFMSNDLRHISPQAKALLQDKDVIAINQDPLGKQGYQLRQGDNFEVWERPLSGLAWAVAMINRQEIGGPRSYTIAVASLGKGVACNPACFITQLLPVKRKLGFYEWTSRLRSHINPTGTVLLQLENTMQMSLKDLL
An asterisk follows results filed as active; ? = inconclusive; nt = not tested or not shown; [ ] = another dose, or the depositor's remark. These rows are one share of the data; rates above refer to the full screens.

SMILES	miR-21 FLuc	Rango complex inh	Rango dissoc inh	GLA inh pH 4.5
COc1ccc(-n2cc(-c3ccccc3)c3c(N4CC(C)OC(C)C4)ncnc32)cc1 (stereo not given)	19%	-0.7%	-1%	-4[21.1 µM]
CCCCCCC(=O)NNC(=O)CC(=O)Nc1ccccc1C(=O)O	-2%	2.4%	5%	3
CC(=O)c1ccc(N2CCN(C(=O)CCCn3c(=S)[nH]c4cc5c(cc4c3=O)OCO5)CC2)cc1	-4%	-3.3%	8%	4
CC(C)(C)CN1CCC(Oc2cccc(C(=O)N3CCNC(=O)C3(C)C)c2)CC1	-2%	?	-5%	nt
COc1cc(C=NOC(=O)Nc2ccccc2)cc(OC)c1OC	nt	-0.3%	5%	nt
O=C(CC1CCCCC1)N1CCCC(c2nc(-c3ccc(S(=O)(=O)N4CCCC4)cc3)no2)C1 (stereo not given)	7%	8.4%	-20%	-5
CC(C)(C)c1ccc(NC(=S)NCc2cccnc2)cc1	5%	-2.4%	-4%	1
O=C(CSCc1cccc(Cl)c1)Nc1ccccc1-c1ccccc1	0%	-5.4%	11%	3
O=C(CN1CCN(c2ccccn2)CC1)Nc1cc(C(F)(F)F)ccc1Cl	7%	5.4%	-3%	-19
c1ccc(OCCCn2ccnc2)cc1	-1%	5.5%	-1%	nt
O=C(CCc1nnc2ccc(NCc3ccco3)nn12)Nc1cc(F)ccc1F	-4%	-0.1%	-15%	nt
CCOC(=O)COc1ccc2c(=O)c(-c3ccccc3OC)coc2c1	-1%	-4.1%	16%	-4
O=C(NNC1CC(=O)N(c2ccc(F)cc2)C1=O)c1cccnc1 (stereo not given)	-1%	3.3%	14%	-8
N#Cc1c(N)n(CCNC(=O)c2ccc(Cl)cc2)c2nc3ccccc3nc12	-3%	?	?	5
O=C(Cc1ccccc1)Nc1ccc(NC(=O)c2ccco2)cc1	-6%	0.2%	6%	nt
Cc1ccc(NC(=O)CCC(=O)NNC(=O)c2ccco2)c(C)c1	1%	-2.0%	0%	9
COc1ccc2cc(C#N)c(SCC(=O)N3CC(=O)Nc4ccccc43)nc2c1	1%	6.1%	-15%	0
CC1C(=O)N(Cc2ccc([N+](=O)[O-])cc2)c2ccccc2N1C(=O)C1CC1 (stereo not given)	0%	0.3%	4%	-2
CC(=O)N1CCN(C(=O)C(Cc2c[nH]c3ccccc23)NC(=O)c2ccccc2Cl)CC1 (stereo not given)	6%	-4.1%	-10%	nt
O=C(NCCN1CCOCC1)c1cccc(S(=O)(=O)Nc2ccc(Br)cc2)c1	nt	4.9%	14%	nt
Cc1sc2ncn(CC(=O)NCCCC(=O)Nc3ccc(C(C)C)cc3)c(=O)c2c1C	-2%	1.2%	6%	nt
COc1ccc(NC(=O)c2sc3ncn(CC(=O)N4CCN(c5ccccn5)CC4)c(=O)c3c2C)cc1OC	11%	0.9%	0%	nt
O=C(CSc1nnc(SCc2ccccc2)s1)N/N=C/C=C/c1ccccc1[N+](=O)[O-]	-8%	-0.3%	12%	-1
N/C(=N\OS(=O)(=O)c1ccc2ccccc2c1)c1ccccn1	-7%	1.2%	3%	6
Oc1ccc(Br)cc1/C=N/N1CCN(Cc2cccc3ccccc23)CC1	-1%	1.1%	0%	-10
O=C1C=C(Nc2cccnc2)c2ccccc2C1=O	nt	6.2%	-8%	nt
Cc1[nH]c2ccc(-c3n[nH]c(=S)n3Cc3ccccc3)cc2c1C	-24%	0.4%	0%	-2
CC1(C)NC(=O)N(CCCCOc2ccc(Br)cc2Cl)C1=O	-26%	3.1%	-4%	-16
COC(=O)c1ccccc1NC(=O)NCc1ccco1	-7%	-0.3%	1%	8
CC1(C)Cc2c(sc(NC(=O)C(=O)N3CCCC3)c2C#N)CO1	-2%	1.3%	13%	nt
COc1ccc2[nH]c(C(=O)N/N=C/c3cc(OC)c(OC)c(OC)c3)cc2c1	17%	-1.6%	-2%	nt
O=C(COC(=O)c1cc(Cl)ccc1Cl)NC1CCCC1	-1%	0.3%	10%	nt
Cc1ccc(NC(=O)C2CCN(S(=O)(=O)c3ccc(F)cc3)CC2)cc1	-6%	-3.2%	7%	-5
N#Cc1c(SCC(=O)Nc2cccc(C(F)(F)F)c2)sc2c(O)cc(=O)[nH]c12	-1%	?	7%	nt
O=C(NCc1ccc(Cl)s1)C1CCC(=O)N(CCc2ccccn2)C1 (stereo not given)	-3%	0.0%	9%	nt
CC(=O)NC1=NN(C(C)=O)C(C)(CCS(=O)(=O)c2ccc(Cl)c(Cl)c2)S1 (stereo not given)	-8%	-4.1%	19%	2
CCCCNC(=O)N1CCN(C/C=C/c2ccccc2)CC1	-3%	-3.2%	5%	5
Cc1ccc(NC(=O)COc2cccc(C)c2C)cc1S(=O)(=O)N1CCCCCC1	nt	-0.1%	9%	nt
O=C(Nc1ccccc1NC(=O)c1ccccc1Cl)c1ccccc1Cl	5%	-3.2%	-8%	nt
O=C1c2ccccc2C(=O)N1CCN1CCOCC1	-2%	-0.4%	1%	2
Cc1ccnc(N2C(=O)c3cccc4c([N+](=O)[O-])ccc(c34)C2=O)c1	-1%	?	?	-8
COC(=O)CSc1nc(NC(C)C)nc(N(C)C)n1	-1%	2.8%	-2%	3
COc1ccccc1C1NC(=O)NC(C)=C1C(C)=O (stereo not given)	0%	-1.7%	-10%	4
CCOCCCNC(=S)N1CCC(NC(=O)C2CCCCC2)CC1	0%	1.3%	-8%	-7
O=C(c1ccco1)N1CCN(Cc2cccnc2)CC1	1%	1.5%	0%	0

Arranged by the number under miR-21 FLuc (falling): some entries from above.
SMILES	miR-21 FLuc	Rango complex inh	Rango dissoc inh	GLA inh pH 4.5
O=C(c1ccco1)N1CCN(Cc2cccnc2)CC1	1%	1.5%	0%	0
COc1ccccc1C1NC(=O)NC(C)=C1C(C)=O (stereo not given)	0%	-1.7%	-10%	4
Cc1ccnc(N2C(=O)c3cccc4c([N+](=O)[O-])ccc(c34)C2=O)c1	-1%	?	?	-8

Continued.
SMILES	miR-21 FLuc	Rango complex inh	Rango dissoc inh	GLA inh pH 4.5
Cc1ccc(S(=O)(=O)N[C@H](C(=O)N2CCC(C(=O)NCC(=O)O)CC2)C(C)C)cc1	-3%	3.8%	18%	6
COc1ccc(NC(=O)C2CC(=O)OC23CCOC(C)(C)C3)cc1 (stereo not given)	0%	9.1%	51%	3
COCCN(CC(=O)Nc1cccc(C)c1C)C(=O)CN1C(=O)NC2(CCCCC2)C1=O	nt	?	-1%	nt
CC(C)(C)OC(=O)NCc1ccc(NC(=O)c2nc[nH]c2C(=O)N[C@@H](Cc2ccccc2)C(=O)OC(C)(C)C)cc1	29%	-1.1%	-6%	-4
O=S(=O)(c1ccccc1)N1CCN(C2CCCCCCC2)CC1	0%	-3.3%	-1%	-10
CCOC(=O)N1CCN(C(=O)COc2cc(=O)n(CC)c3ccccc23)CC1	-3%	6.3%	10%	-2
CCOC(=O)N/N=C/c1ccccc1OCc1ccc(Cl)cc1	-54%	0.6%	10%	1
COc1ccc(N(CC(=O)NCc2ccc(F)cc2)C(=O)CCC(=O)Nc2nccs2)cc1	5%	-2.1%	-4%	nt
CCn1c(SCC(=O)Nc2cc(C)on2)nnc1-c1ccc(S(=O)(=O)N2CCCC2)cc1	-2%	-0.9%	7%	3
O=C(CN(C(=O)CCC(=O)Nc1nccs1)c1ccc(F)cc1)NCc1ccc(F)cc1	-1%	-1.7%	-6%	nt
Cc1ccc(S(=O)(=O)/C=C/c2ccccc2)cc1	-6%	3.2%	-2%	-14
O=c1[nH]c2ccc(S(=O)(=O)N3CCCCC3)cc2o1	-4%	-6.0%	1%	-7
CC(=O)Nc1ccc(S(=O)(=O)NCCCCNS(=O)(=O)c2ccc(NC(C)=O)cc2)cc1	0%	-1.6%	3%	nt
COc1ccc(NC(=O)Nc2cccc3ccccc23)cc1OC	-23%	1.6%	12%	nt
O=C(NC(=S)Nc1nc2c(s1)CCCC2)c1ccccc1	-53%	1.7%	-13%	0

Record cards, from the list above. Screens in order: miR-21 FLuc, Rango complex inh, Rango dissoc inh, GLA inh pH 4.5
Shown for `O=C(NC(=S)Nc1nc2c(s1)CCCC2)c1ccccc1` : -53%, 1.7%, -13%, 0
Shown for `CCn1c(SCC(=O)Nc2cc(C)on2)nnc1-c1ccc(S(=O)(=O)N2CCCC2)cc1` : -2%, -0.9%, 7%, 3

The listing continues:
SMILES	miR-21 FLuc	Rango complex inh	Rango dissoc inh	GLA inh pH 4.5
CCCC(=O)Nc1sc(Cc2ccccc2)c(C)c1C(N)=O	4%	-2.2%	7%	6
COc1ccc(Cl)cc1NC(=O)CN(C)C(=O)CN1C(=O)NC2(CCCC2)C1=O	nt	2.0%	4%	nt
CCOC(=O)c1ccc(S(=O)(=O)N2CCN(C(=O)c3cc4ccccc4o3)CC2)cc1	nt	-0.2%	23%	nt
CC1=C(C(=O)Nc2ccc(C)cn2)C(c2cnn(C)c2)C2=C(CCCC2=O)N1 (stereo not given)	-10%	-2.8%	-8%	15
CC(C)C(C)N(Cc1ccc(C(=O)O)cc1)C(=O)c1ccc2ccccc2n1 (stereo not given)	nt	?	?	nt
CCOP(=O)(OCC)C(Nc1ccc(OC)cc1)c1ccco1 (stereo not given)	0%	-4.1%	5%	-1
CCC(SC1=Nc2ccccc2C2=NC(CC(C)C)C(=O)N12)C(=O)Nc1ccc2c(c1)OCO2 (stereo not given)	-29%	-2.9%	-2%	-20
Cc1cc(Cl)nc(-c2ccccc2)n1	0%	3.7%	0%	3
C#Cc1cccc(C(=O)N2CCCC(CCC(=O)NCc3ccccc3F)C2)c1 (stereo not given)	nt	-0.9%	-10%	nt
COc1cc2c(cc1[N+](=O)[O-])n(C(C)C)c(=O)n2C(C)C	-44%	2.2%	34%	7
COc1ccc2c(c1)C(c1cccs1)=NNC(c1cccnc1)=N2	-8%	4.3%	8%	4
O=S(=O)(Nc1ncn[nH]1)c1ccc(Cl)cc1	-1%	-2.0%	-9%	-2
O=C(Cc1ccc(NS(=O)(=O)c2ccc(F)cc2)cc1)NCc1ccccc1	8%	-0.6%	2%	2
COc1ccccc1CNC(=O)c1cc(C2CC2)nc2c1cnn2C(C)C	nt	-2.2%	1%	nt
O=C(NC1=NCCS1)c1ccc(Cl)c(S(=O)(=O)N2CCCCC2)c1	-9%	-1.3%	4%	-24
Cc1cccc(Cn2cnc3c(nnn3Cc3ccccc3F)c2=O)c1	1%	-1.7%	-8%	2
Cn1nc(-c2ccccc2)c(/C=N/O)c1Cl	2%	1.0%	4%	5
O=C(Nc1ccccc1C(=O)N1CCCCC1)C1CCCCC1	-5%	-1.5%	3%	5
CCOC(=O)N1CCC(N2CCN(S(=O)(=O)CC)CC2)CC1	0%	1.5%	-11%	-4
O=C(c1ccc(Br)cc1)C1CCc2occc2C1=O (stereo not given)	-25%	-2.7%	-2%	0
S=c1[nH]nc(-c2ccccc2)n1/N=C/c1ccc(Cl)cc1	-6%	0.6%	-1%	nt
CCc1cc(=O)oc2cc(C)cc(OCC(=O)N3CCC[C@@H]3C(=O)O)c12	2%	?	14%	nt
O=C(NCC(c1cccs1)N1CCOCC1)c1ccccc1NS(=O)(=O)c1ccc(Br)cc1 (stereo not given)	3%	1.9%	26%	-1
O=C(CN1CCN(S(=O)(=O)c2ccc(Br)cc2)CC1)Nc1ccc(F)cc1	13%	-0.9%	1%	-2
O=C(NCC(c1ccco1)N1CCc2ccccc21)C(=O)Nc1ccccc1F (stereo not given)	nt	-1.4%	0%	nt
COc1cc(C)ccc1OCc1cc(C(=O)N2CCCCCC2)no1	-36%	-0.5%	-24%	nt
COc1cc(C(=O)COC(=O)C2CC2(Cl)Cl)cc(OC)c1OC (stereo not given)	nt	-2.9%	3%	nt
O=C(Nc1ccccc1OC(F)F)c1ccc(-n2cncn2)c([N+](=O)[O-])c1	nt	1.1%	-6%	nt
COc1cc(NC(=O)c2cc3sccc3n2C)cc(OC)c1	-43%	?	-1%	?
CCC(C)[C@H](N)c1nnc(SCc2cccc(F)c2)o1 (stereo not given in full)	-16%	-3.0%	0%	-1
COc1ccccc1N(C)S(=O)(=O)c1ccc(C(=O)Nc2cc(OC)c(OC)c(OC)c2)cc1	nt	-1.7%	2%	nt
N#Cc1c(NC(=O)c2ccccc2)sc2c1CCC2	-9%	?	5%	2

From PubChem BioAssay
